Bioassay records from PubChem.
Sa growth 42C: S. aureus growth inhibition | S. aureus RN4220 growth, OD600, 20 h, 42 °C; stronger effect = lower value | relative growth, % (test concentration not listed) | 170,000 compounds, 0.53% hits | AID 720641;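 active = growth at 42 °C up to 50% and 20 or more points under that at 30 °C, or under 10% at both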;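 note: 300 nL library stock went into each well; scaled to the means of positive and negative controls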
GIV-Gai inh: blocks GIV peptide binding to rat Galpha-i3 | Galpha-i3/FITC-GIV peptide fluorescence polarization, 90 min; stronger effect = lower value; scaled: aluminum fluoride 0%, vehicle 100% | percent of control (FP), % (no concentration beside the values) | 210,000 compounds, 0.42% hits;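 active = replicate mean at 85% of control or lower, very high polarization wells dropped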;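 note: wells of about 15 µL received 100 nL stock; the first replicate is given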
Target sequence (P08753 whole entry, looked up): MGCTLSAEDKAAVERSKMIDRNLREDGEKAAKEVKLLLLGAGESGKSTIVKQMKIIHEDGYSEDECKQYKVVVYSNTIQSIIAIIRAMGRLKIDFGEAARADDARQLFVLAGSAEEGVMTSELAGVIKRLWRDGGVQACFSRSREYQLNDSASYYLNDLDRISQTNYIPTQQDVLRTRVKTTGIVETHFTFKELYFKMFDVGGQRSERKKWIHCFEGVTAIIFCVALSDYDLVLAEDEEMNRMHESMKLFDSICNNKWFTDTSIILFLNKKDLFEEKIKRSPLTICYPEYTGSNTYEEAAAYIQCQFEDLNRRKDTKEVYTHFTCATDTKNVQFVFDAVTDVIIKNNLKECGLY
HCMV UL50-53 inh: disrupts HCMV UL50-UL53 complex binding; HTRF UL50-UL53 interaction, normalized percent inhibition; inhibition, % (test concentration not listed); 190,000 compounds, 0.15% hits;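 active = both replicates at 50% or more, plus weaker picks with an unusually low signal ratio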;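 note: stock transfer was 100 nL into about 20 µL; 0% = negative control wells and 100% = wells with untagged competitor protein; inactives centre near -12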
Sa growth 42C second temp: second read-out of Sa growth 42C, no call of its own (marks repeat the call); relative growth, %; measured here: growth at 30 °C;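 optical density after 20 h as mean of two plates; 100% = untreated growth and lower means inhibition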
Active calls of the source: *; nt = not tested or not shown; & = joins results of further samples.

#	SMILES	Sa growth 42C second temp	GIV-Gai inh	HCMV UL50-53 inh	Sa growth 42C
1	Cc1noc2ncc(C(=O)c3ccccc3O)cc12	102	nt	14	106
2	CC1CCCC(NC(=O)COC(=O)Cc2ccsc2)C1C (stereo not drawn)	85	nt	-18	116
3	CCOc1cccc2c1OC1(C)C(C(=O)Nc3ccc(OC)cc3)C2NC(=S)N1CCOC (stereo not drawn)	85	101	nt	95
4	CC1(C)CC(NCC(=O)Nc2ccc(C(=O)O)cc2)CC(C)(C)N1	95	nt	4	78
5	CC(Nc1ccc2c(c1)OCCO2)C(=O)N1c2ccccc2CC1C (stereo not drawn)	94	nt	-16	96
6	CCOC1CS(=O)(=O)CC1OCC (stereo not drawn)	79	107	3	108
7	CCCCS(=O)c1nc(-c2ccc(C)cc2)cc(-c2ccccc2)c1C#N (stereo not drawn)	92	99	nt	112
8	COC(=O)c1ccc([C@H]2Nc3ccc(S(=O)(=O)Nc4cccc(C)c4)cc3[C@H]3C=CC[C@H]32)cc1	84	111	-43	111
9	COc1cc(C=C2C(=O)NC(=O)NC2=O)cc(Cl)c1OCC(=O)O	99	96	72*	102
10	COc1nc(Nc2ccc(Cl)cc2)nc(N2CCCCC2)n1	nt	104	-17	nt
11	CCC(Sc1nc2cc3c(cc2c(=O)n1CCCC(=O)NCc1ccc(OC)cc1)OCO3)C(=O)NCCCOC (stereo not drawn)	89	103	nt	82
12	COCCNC(=O)c1ccc2c(=O)n(-c3ccc(F)cc3)c(SCC(=O)c3c(C)[nH]c4ccccc34)nc2c1	nt	103	-14	nt
13	Nc1nc(CSc2n[nH]c(-c3ccccc3)n2)nc(Nc2ccccc2)n1	69	101	nt	119
14	COC(=O)c1ccc2oc(=O)n(C)c2c1	nt	106	-34	nt
15	COc1ccccc1-c1nn2c(CSc3ccccc3)nnc2s1	nt	108	15	nt
16	O=C(CN1N=C(c2ccccc2)c2ccccc2S1(=O)=O)Nc1ccc(Cl)cc1	nt	103	-14	nt
17	CC1(C)CC(=O)C2=C(C1)Nc1ccccc1N(C(=O)Nc1ccc(Cl)c(Cl)c1)C2c1ccco1 (stereo not drawn)	94	112	-10	102
18	O=C(CN1CCN(Cc2ccccc2)CC1)N1N=CCC1c1ccccc1 (stereo not drawn)	101	111	-29	105
19	COc1ccc2c(c1)CCc1c(C(=O)Nc3c(C)nn(Cc4ccc(Cl)cc4)c3C)noc1-2	96	109	-1	101
20	CCOc1cccc(C2c3[nH]c4ccccc4c3CCN2C(=O)c2ccccc2F)c1 (stereo not drawn)	96	99	nt	89
21	CC(C)CN(CC(=O)N1c2ccccc2CC1C)CC(C)C (stereo not drawn)	95	nt	-14	88
22	CC(C)CN1CN(Cc2ccco2)CNC1=S	80	110	nt	109
23	O=C(Oc1ccccc1N1CCOCC1)c1cccnc1Oc1ccccc1	90	99	-12	95
24	Cc1cccc(C)c1NC(=O)c1oc2c(c1C)-c1nn(Cc3ccccc3)cc1CC2	88	101	-19	141
25	COc1ccc(NC(=O)CN2C(=O)c3ccccc3C2=O)cc1	97	106	nt	109
26	COC(=O)c1ccc(Oc2ncc(C(F)(F)F)cc2Cl)cc1	nt	102	-11	nt
27	CSc1cccc(NC(=O)CCS(=O)(=O)c2ccc3c(c2)CCN3C(C)=O)c1	85	96	nt	112
28	O=C(NCCCn1c(-c2ccncc2)nc2cccnc21)Nc1cccc(Br)c1	nt	107	-13	nt
29	O=C(c1ccccc1NS(=O)(=O)c1ccccc1)N1CCCC1	85	nt	-26	102
30	O=Nc1sc2ccc3ccccc3c2c1O	80	114	-92	81
31	CCc1ccc(-n2nnc(-c3nc(-c4ccccc4)no3)c2C)cc1	92	105	nt	99
32	CC(C)NC(=O)Cn1c(=O)n(CC2CCC(C(=O)NC(C)C)CC2)c(=O)c2sccc21 (stereo not drawn)	nt	105	-18	nt
33	CCS(=O)(=O)c1ccc2oc(=O)[nH]c2c1	87	106	-17	89
34	COCCN1Cc2cccc(C(=O)NCc3ccccn3)c2C1=O	94	102	nt	99
35	CCOc1ccc2c(c1)c(=O)c(S(=O)(=O)c1ccc(Cl)cc1)cn2Cc1ccccc1C	88	106	-14	111
36	CCOC(=O)c1c(NC(=O)C(C)Oc2c(F)c(F)cc(F)c2F)sc(C(=O)N(CC)CC)c1C (stereo not drawn)	nt	109	4	nt
37	CSc1ccccc1C(=O)NCc1cccnc1	105	106	-2	97
38	CCn1cc(C(=O)N(C)C2CCCCC2)c2cc(OC)c(OC)cc2c1=O	88	105	nt	109
39	O=C(NC(=S)NCc1ccccc1)c1ccco1	58	104	-25	110
40	COc1cc2ncc(C#N)c(Nc3ccc4c(c3)OCCO4)c2cc1OC	nt	109	-31	nt
41	Cc1cc(C)cc(NS(=O)(=O)c2ccc3c(c2)CCCN3C(=O)C2CCC2)c1	87	103	nt	101
42	N#CCSc1nc2cc(Cl)ccc2n1Cc1ccccc1	93	nt	-6	99
43	CC1CCC(NC(=O)CN(C)S(=O)(=O)c2ccc3c(c2)CCC(=O)N3)CC1 (stereo not drawn)	97	101	8	83
44	Oc1c(C(c2ccc(C(F)(F)F)cc2)N2CCOCC2)ccc2cccnc12 (stereo not drawn)	2	nt	-31	26
45	c1ccc2sc(CSc3nc4ccccc4s3)nc2c1	91	nt	-21	107
46	CCCCC(=O)N1CC(=O)Nc2ccc(C)cc2C1c1ccc(F)cc1 (stereo not drawn)	78	105	23	105
47	COc1ccc(N2C(=O)NC(=O)C(Cc3ccc(OC)c(OC)c3)C2=O)cc1 (stereo not drawn)	85	106	-21	86
48	CCN(C(=O)c1cnc2ccc(C)cn2c1=O)c1ccccc1	87&83	102&102	-36&-34	91&84
49	O=C(OCCN1CCCC1=O)c1ccccc1	100	nt	20	112
50	CCn1c(CN2CCOCC2)nc2cc(NC(=O)c3ccccc3[N+](=O)[O-])ccc21	93	106	-88	109

Continuation:
#	SMILES	Sa growth 42C second temp	GIV-Gai inh	HCMV UL50-53 inh	Sa growth 42C
51	CSc1cccc(NC(=O)c2ccc3c(c2)NC(=O)CS3)c1	96	nt	-24	67
52	CCCn1nnnc1NCc1ccc(-c2ccc(Br)cc2)o1	nt	117	-7	nt
53	CC(NC(=O)c1ccc2c(c1)OCCO2)C12CC3CC(CC(C3)C1)C2 (stereo not drawn)	nt	104	14	nt
54	O=S(=O)(Nc1ccc(Cn2cnc(-c3nc(-c4ccc(F)cc4)no3)c2)cc1)c1ccc(F)cc1	nt	105	-23	nt
55	CSc1nc2ccc(NC(=O)C3CC(=O)N(Cc4ccco4)C3)cc2s1 (stereo not drawn)	89	nt	12	92
56	CCOC(=O)c1[nH]c(C)c(C(=O)OCC)c1CC	90	97	-13	92
57	COc1ccc(C)cc1N(C)C(=O)c1nn(C)c2c1COc1ccccc1-2	89	103	nt	121
58	COC(=O)CN1C(=O)S/C(=C/c2ccc(-c3ccc(C(=O)O)cc3)o2)C1=O	89	134	nt	110
59	Cc1cc(C)c(S(=O)(=O)N2CCCC(C(=O)NC3CC3)C2)c(C)c1 (stereo not drawn)	97	107	-1	98
60	CCC(Sc1nccn1C)C(=O)Nc1cc(C)on1 (stereo not drawn)	77	106	-1	104
61	N#Cc1cc2c(=O)n3ccccc3nc2n(CC2CCCO2)c1=O (stereo not drawn)	85	115	-104	92
62	COc1cccc(C(=O)c2sc(Nc3ccc(F)c(Cl)c3)nc2N)c1	91	112	nt	77
63	COc1ccc(/C=C/c2nc(C#N)c(N3CCN(c4ccccc4)CC3)o2)cc1OC	94	99	10	104
64	CCOC(=O)c1ccccc1NC(=O)Cn1ncc2c1-c1ccccc1OC2	85	104	4	108
65	O=C(Nc1ccc2c(c1)SC1=NCCN12)C(F)(F)F	105	102	-2	101
66	CCOC(=O)c1cc2c(=O)n3ccccc3nc2n(CC2CCCO2)c1=NC(=O)c1ccccc1OCC (stereo not drawn)	94	106	-24	90
67	NC(=O)COc1ccc(S(=O)(=O)c2ccc(OCC(N)=O)cc2)cc1	109	103	-12	116
68	Cc1occc1C(=O)N/N=C/c1c[nH]c2ccccc12	99	103	-30	107
69	O=C(NCc1ccc(F)cc1)C1CC(=O)N(c2ccc(F)cc2)C1 (stereo not drawn)	81	nt	-10	99
70	CN(C)Cn1c2ccccc2c2ccccc21	53	102	-33	92
71	C=CCn1c(=O)oc2ccc(C(=O)NC3CCN(Cc4ccccc4)CC3)cc21	nt	98	-22	nt
72	COc1ccc(OC)c2sc(N(Cc3cccnc3)C(=O)c3ccco3)nc12	91	103	nt	111
73	CCn1c(=O)oc2cc(Br)ccc21	97	nt	6	100
74	Cc1nn(-c2ccccc2)c(Cl)c1C(=O)NC1CCS(=O)(=O)C1 (stereo not drawn)	92	nt	3	84
75	CC(=O)c1cccc(Nc2cc(C)nc3nc(Cc4ccccc4)nn23)c1	82	102	-32	93
76	CCc1ccc(-n2nnc3c(=O)n(Cc4nc(-c5ccccc5Cl)no4)cnc32)cc1	nt	113	-11	nt
77	O=C(Cn1ccc2ccccc2c1=O)NCCC(=O)N1CCCCC1	87	97	nt	104
78	CC1(C)CC(N=CC2=C(O)c3ccccc3C2=O)CC(C)(C)N1	86	101	-69	83
79	O=C(Nc1ccc2c(c1)OCCO2)c1ccc(Nc2ccnc(-c3cccc(F)c3)n2)cc1	nt	104	-7	nt
80	Cn1c(C(=O)O)cc2ccccc21	94	104	nt	110
81	CC(C)(C)c1ccc(/C=C/C(=O)Nc2cccnc2)cc1	92	102	nt	130
82	CC(C)(C)CC(=O)Nc1ccc(-c2nnc3n2CCCCC3)cc1	104	nt	-5	108
83	CN1CCSc2ccc(C(=O)NC3CCCCCC3)cc21	90	102	-3	100
84	CC(=O)NC(Cc1c[nH]c2ccccc12)C(=O)Nc1cccc(C#N)c1 (stereo not drawn)	98	nt	-10	98
85	COc1ccc2[nH]cc(CCNc3ccc(S(=O)(=O)c4ccccc4)nn3)c2c1	nt	97	-8	nt

Three structures from above, ordered by SMILES length, ascending:
#	SMILES	Sa growth 42C second temp	GIV-Gai inh	HCMV UL50-53 inh	Sa growth 42C
1	Cc1noc2ncc(C(=O)c3ccccc3O)cc12	102	nt	14	106
62	COc1cccc(C(=O)c2sc(Nc3ccc(F)c(Cl)c3)nc2N)c1	91	112	nt	77
19	COc1ccc2c(c1)CCc1c(C(=O)Nc3c(C)nn(Cc4ccc(Cl)cc4)c3C)noc1-2	96	109	-1	101

Molecules listed so far that contain an aryl thioether with sulfur outside any ring (eleven):
#	SMILES	Sa growth 42C second temp	GIV-Gai inh	HCMV UL50-53 inh	Sa growth 42C
11	CCC(Sc1nc2cc3c(cc2c(=O)n1CCCC(=O)NCc1ccc(OC)cc1)OCO3)C(=O)NCCCOC (stereo not drawn)	89	103	nt	82
12	COCCNC(=O)c1ccc2c(=O)n(-c3ccc(F)cc3)c(SCC(=O)c3c(C)[nH]c4ccccc34)nc2c1	nt	103	-14	nt
13	Nc1nc(CSc2n[nH]c(-c3ccccc3)n2)nc(Nc2ccccc2)n1	69	101	nt	119
15	COc1ccccc1-c1nn2c(CSc3ccccc3)nnc2s1	nt	108	15	nt
27	CSc1cccc(NC(=O)CCS(=O)(=O)c2ccc3c(c2)CCN3C(C)=O)c1	85	96	nt	112
37	CSc1ccccc1C(=O)NCc1cccnc1	105	106	-2	97
42	N#CCSc1nc2cc(Cl)ccc2n1Cc1ccccc1	93	nt	-6	99
45	c1ccc2sc(CSc3nc4ccccc4s3)nc2c1	91	nt	-21	107
51	CSc1cccc(NC(=O)c2ccc3c(c2)NC(=O)CS3)c1	96	nt	-24	67
55	CSc1nc2ccc(NC(=O)C3CC(=O)N(Cc4ccco4)C3)cc2s1 (stereo not drawn)	89	nt	12	92
60	CCC(Sc1nccn1C)C(=O)Nc1cc(C)on1 (stereo not drawn)	77	106	-1	104
